# PINK1 expr mod: A Quantitative High throughput Screen to Identify Chemical Modulators of PINK1 Expression | PINK1 immunofluorescence, high-content cytometry, 24 h | Potency, µM (series often up to 76.6 µM), without a hit: top-dose activation (PINK1 increase), most hits filed as activators | 0.2% of 410,000 active | AID 624263, 2012; active = well fitted activation curve with a large enough effect; inconclusive = small, poorly fitted or top-dose-only effect; inactive = flat fitted curve, though single readings scatter; cell line not stated here;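 note: % of control where 0% means no effect; nearly all actives have a fitted effect of over 65% in size; a mitochondrial uncoupler was the plate control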
#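 Stable cell line treated 24 h with compounds at 5 concentrations (CCCP controls), then fixed and immunostained for PINK1 plus nuclear and cell stains; PINK1 immunofluorescence quantified by laser-scanning microplate cytometry.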
# ClpP mod: qHTS Assay for Activators of ClpP | AID 651965, 2013 | Potency, µM (top dose mostly 57.5 µM), without a hit: top-dose activity change, negative = active | ATP-dependent Clp protease proteolytic subunit (Bacillus subtilis (strain 168)), P80244 | purified B. subtilis ClpP, FRET peptide cleavage, 20 min | 1.9% of 340,000 active; active = well fitted falling curve with a large enough effect; inconclusive = small, poorly fitted or top-dose-only effect; inactive = no such curve, though single readings can be large or run the other way; note: the source files actives as falling curves though it sought activators and does not explain the sign; nearly all actives have a fitted effect of over 65% in size; many hits overshoot -100%
# Target sequence (P80244 whole entry, looked up): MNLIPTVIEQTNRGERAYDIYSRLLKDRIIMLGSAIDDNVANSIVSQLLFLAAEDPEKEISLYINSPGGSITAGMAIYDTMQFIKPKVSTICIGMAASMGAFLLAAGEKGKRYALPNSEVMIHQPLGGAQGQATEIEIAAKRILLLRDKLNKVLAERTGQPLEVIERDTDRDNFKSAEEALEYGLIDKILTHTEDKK
#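 Purified B. subtilis ClpP, 10 microg/mL final in Tris/HCl pH8 with KCl, BSA, glycerol and Tween-20, cleaved an Abz/nitrotyrosine-quenched decapeptide. Fluorescence (ex 320, em 430) was read at 0 and 20 min at room temperature. Delta was normalized to 5.8 microM ADEP and DMSO/no-enzyme controls.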
# * marks the source's active call; other numbers are inactive results; ? = inconclusive. Potency is the fitted concentration of half-maximal effect.
SMILES,PINK1 expr mod,ClpP mod
CCOc1ccc(NC(=O)c2sc3nc4c(c(-c5ccc(OC)cc5)c3c2N)C(=O)CC(C)(C)C4)cc1,3.4%,-0.1%
CCOc1ccccc1NC(=O)Cn1c(=O)n(CC(=O)NCc2ccccc2Cl)c(=O)c2sccc21,1.4%,0.3%
CCCCN(CCCC)C1=C(C(=O)c2ccccc2)N(C)S(=O)(=O)c2ccccc21,-4.1%,0.3%
COc1ccccc1N1CCN(C(=O)c2cc3c(-c4ccccc4F)nn(C)c3s2)CC1,-0.1%,-9.7%
Cc1ccc2c(c1Br)C(O)(CC(=O)c1ccc(F)cc1)C(=O)N2 (stereo not given),2.9%,-3.6%
Cc1ccc(OCC(=O)N(Cc2ccco2)Cc2ccco2)cc1,-0.4%,-1.2%
COc1ccc(-c2cc(C(F)(F)F)nc(NCCc3ccccc3)n2)cc1,?,4.1%
Fc1ccc(-c2noc3ncnc(NCc4cccc(Cl)c4)c23)cc1,3.4%,-2.5%
COc1cc([N+](=O)[O-])ccc1NC(=O)N1CCC2(CC1)Nc1cc(F)ccc1-n1cccc12,2.2%,-2.6%
CCOc1ccc(NC(=O)CSc2cn(CC(=O)N3CCCCCC3)c3ccccc23)cc1,0.9%,1.2%
COc1ccc(Cl)cc1NC(=O)c1cc(S(=O)(=O)N(C)Cc2ccccc2)ccc1F,-1.2%,-9.4%
CCc1ccc(NC(=O)CC2C(=O)N(c3cccc(OC)c3)C(=O)N2Cc2ccc(F)cc2)cc1 (stereo not given),0.9%,-0.2%
Cc1ccc(C)c(N2CCN(C(=O)c3cc(C)nc4c3c(C)nn4-c3ccccc3)CC2)c1,4.2%,?
Clc1ccc(-c2nn3c(-c4cc(-c5ccccc5)n[nH]4)nnc3s2)cc1,-0.4%,-15%
Cc1ccc(C)c(N2CCN(C(=O)c3cnn(-c4ccccc4Cl)c3C3CCN(C(=O)OC(C)(C)C)CC3)CC2)c1,-0.9%,0.6%
CN1CCN(C(=O)Cn2c(-c3cccs3)cc3ccccc32)CC1,-1.3%,28µM*
CSCC[C@@H](C(=O)Nc1cccc(F)c1)N1Cc2ccccc2C1=O,1.3%,0.5%
CCCc1nn2c(=O)cc(COC(=O)c3ccc(NC(=O)CCc4ccccc4)cc3)nc2s1,0.2%,-5.4%
CCOc1cccc2cc(-c3nc4ccc(C(=O)O)cc4[nH]3)c(=O)oc12,-1.2%,5.2%
Cc1ccc(-n2nc(CO)c(C(=O)NCc3cccnc3)n2)cc1,1.5%,7.9µM*
COc1ccc(CCNC(=O)C2CCC(CNS(=O)(=O)c3ccc(C)cc3)CC2)cc1OC (stereo not given),0.0%,0.4%
CCC(C)NC(=O)CSc1nc2c(sc3ccccc32)c(=O)n1CCc1ccc(OC)c(OC)c1 (stereo not given),0.1%,1.7%
COc1cccc(NC(=O)CN2C(=O)CSc3ccc(S(=O)(=O)N4CCCC4)cc32)c1,-0.2%,-1.7%
Clc1ccccc1-c1nnc(-c2ccccc2CNc2ccccc2)o1,-1.0%,-1.9%
O=C1C(Sc2cccc(F)c2)=C[C@@]2(O)CC[C@@H](O)[C@]1(Sc1cccc(F)c1)[C@H]2O,2.7%,1.8%
CCOc1ccccc1N(C)C(=O)c1sc2nc3n(c(=O)c2c1C)CCCC3,0.3%,-0.9%
Cc1cc(C)cc(Oc2coc3c(CN4CCN(C)CC4)c(O)ccc3c2=O)c1,4.3%,4.0%
CCN(CC)C(=O)c1sc2c(c1C)c(=O)n(-c1ccc(Cl)c(Cl)c1)c(=O)n2Cc1ccccc1C#N,3.5%,-2.5%
CCOc1ccccc1NC(=O)N1c2ccccc2Sc2ccccc21,1.9%,-13%
CCOC(=O)c1ccc(NC(=O)CCC(=O)N2Cc3ccccc3Oc3ncccc32)cc1,0.8%,-2.5%
CCCCCCCCN1C(=O)[C@H](CC(=O)NCCCOC)C[C@@]2(C(=O)OCC)CCCC=C12,-0.9%,-2.9%
O=C(CSc1nc(=O)n(Cc2ccco2)c2c1CCC2)Nc1ccccc1C(F)(F)F,-0.9%,-5.0%
COc1cc(CN(C(=O)COc2ccc(Cl)c(C)c2)c2ccccn2)cc(OC)c1OC,-0.5%,-4.3%
CCN1CCSc2ccc(C(=O)NCc3ccc(F)cc3)cc21,3.4%,4.0%
Cc1nn(-c2ccc(N3CCCCC3)nn2)c(C)c1CCC(=O)NCc1ccccc1,1.5%,-1.5%
COc1cccc(CNC(=O)CSc2ncc(S(=O)(=O)c3ccc(C)c(Cl)c3)c(=O)[nH]2)c1,-0.7%,0.1%
CCC(C(=O)Nc1ccc(C(C)=O)cc1)n1c(C)c2cnn(-c3ccccc3)c(=O)c2c1C (stereo not given),1.4%,0.9%
OCCOC1CCCc2oc(-c3ccccc3)c(C#CC3(O)CCCCC3)c21 (stereo not given),-0.6%,4.6%
COC(=O)CSc1nc2sc3c(c2c(=O)n1-c1ccccc1)C(C)CCC3 (stereo not given),0.3%,-3.4%
COc1ccc2c(c1)CC(C(=O)Nc1ccc(Br)c(C)c1)CO2 (stereo not given),0.5%,-9.5%
CCOC(=O)c1ccc(NC(=O)CCn2ccc(C)n2)cc1,-1.3%,-1.6%
CCCCCOC(=O)c1ccc(Nc2nc(C(=O)OCC)nc3ccccc23)cc1,-0.4%,-4.5%
CCOC(=O)c1cc2c(=O)n3ccccc3nc2n(CCCOC)c1=NC(=O)C(C)(C)Oc1ccc(Cl)cc1,0.0%,4.1%
CCCOc1ccc(CNC(=O)C2CCCN(c3nc4c(C)cc(C)cc4s3)C2)cc1 (stereo not given),0.0%,-0.4%
CCOc1ccc(-c2cccc(NS(=O)(=O)c3c(C)cc(C)cc3C)c2)nn1,4.7%,0.1%
CCOC(=O)c1c(C)oc2nc(C)nc(NCCc3ccc(OCC)c(OCC)c3)c12,-1.0%,-1.2%
Cc1ccc(S(=O)(=O)NCc2nc(-c3cccc(C)c3)no2)cc1,0.6%,-1.4%
CC(NC(=O)c1ccccc1)c1nc2ccccc2n1Cc1ccc(Cl)cc1 (stereo not given),9.6%,2.5%
COc1ccccc1NC(=O)C1=C(C)Nc2nc(SCc3ccccc3C)nn2C1CC(C)C (stereo not given),0.1%,-1.5%
CN(CC(=O)NCc1ccccc1)S(=O)(=O)c1ccc2[nH]c3c(c2c1)CCCC3,20%,?
COc1cc2c(NC3CCN(C)CC3)nc(N3CCCN(C)CC3)nc2cc1OCCOCCN1CCCC1,0.4%,4.3%
CCCCc1nn2c(=O)cc(COC(=O)c3ccccc3NC(=O)c3cccs3)nc2s1,1.3%,-11%
Nc1[nH]c(C(=O)c2ccccc2)c(-c2ccccc2C(F)(F)F)c1C(=O)NCc1ccc(F)cc1,-1.1%,1.6%
Nc1nn(-c2ccccc2)nc1C(=O)OCc1c(F)cccc1Cl,-2.6%,3.5%
CN(C)c1ccc(/C=C2\CCc3ccccc32)cc1,-0.6%,4.3%
Cc1ccccc1C(=O)Nc1ccccc1-c1nc(-c2ccccc2)no1,1.1%,-7.5%
COc1cc2nc(N3CCOCC3)nc(NC(C)C)c2cc1OC,0.3%,3.5%
O=C1NC[C@H](Cc2ccc(O)cc2)N(C[C@@H]2CCCN2C[C@H](Cc2ccccc2)N2C[C@H](Cc3ccc(O)cc3)N(CC3CCCCC3)C(=O)C2=O)C1=O,0.8%,0.4%
CCOc1cc(C#N)c(NC(=O)c2ccc(OC)c(S(=O)(=O)N3CCCC3)c2)cc1OCC,1.0%,-1.9%
Cc1ccc(CNC(=O)c2ccc3c(c2)N(Cc2cccc(C)c2)C(=O)CS3)cc1,1.8%,1.4%
# Further compounds.
SMILES,PINK1 expr mod,ClpP mod
O=C(Cn1cc(SCc2ccc(F)cc2)c2ccccc21)N1CCCCC1,2.8%,0.4%
CCCCC[C@H](C)N1C[C@@H](COCc2ccccc2)Oc2cc(N3CC[C@H](O)C3)ccc2S1(=O)=O,2.7%,-29%
CCOc1ccc(NC(=O)Cn2cc(C(=O)c3ccc(CC)cc3)c(=O)c3cc(OC)c(OC)cc32)cc1,2.6%,-5.7%
Cc1cccc(N2CCN(S(=O)(=O)c3cc(Br)cc4c3N(C(=O)C3CC3)CC4)CC2C)c1 (stereo not given),0.6%,1.7%
COC(=O)c1ccc2nc(-c3ccc(OC)c(OC)c3)c(Cc3cccc(F)c3)n2c1,0.2%,5.3%
O=S(=O)(c1ccccc1)c1nc(-c2ccccc2F)oc1N1CCOCC1,-1.7%,-15%
O=C(NCc1ccccc1Cl)C1CCCN(C(=O)c2cnn(-c3ccccc3)c2-n2cccc2)C1 (stereo not given),0.0%,-1.1%
COc1cc(C(=O)N(Cc2ccc(N(C)C)cc2)CC2CCCO2)cc(OC)c1OC (stereo not given),-0.9%,-0.2%
COc1cc(-c2noc(-c3ccc(N4CCCCC4)c([N+](=O)[O-])c3)n2)cc(OC)c1OC,0.2%,0.9%
Cc1cccc(N2CCN(C(=O)C3CCN(Cc4nc(-c5ccc(Cl)cc5)oc4C)CC3)CC2)c1C,1.8%,-2.1%
O=C(Nc1ccc(Cl)cc1)C1CCN(c2nc3ccccc3n3cccc23)CC1,-0.7%,28µM*
Cc1ccccc1CN1CCc2nc(N3CCN(c4ncccn4)CC3)ncc2C1,0.0%,-15%
CCC1CN(C(=O)N2CCC(C(=O)NCCC3=CCCCC3)CC2)c2cc(C)ccc2O1 (stereo not given),-0.5%,0.3%
CC(=O)Nc1ccccc1OCc1cc(=O)n2c(C)csc2n1,0.7%,0.8%
CCOC(=O)[C@]12Cc3c(cc(OC)c(OC)c3OC)[C@H]1N(Cc1ccccc1)C(=O)c1cc(OC)ccc12,-1.2%,-2.7%
CSc1ccc(CNC(=O)CN2C(=O)C3CCCCN3c3ccc(C(=O)N4CCCC4)cc32)cc1 (stereo not given),-1.1%,1.0%
COc1ccc(CCNC(=O)c2cc3c(=O)n(C)c4cc(Cl)ccc4c3s2)cc1OC,-2.0%,-25%
COc1cc(NC(=O)c2noc3c2CC(C)CC3)c(OC)cc1Cl (stereo not given),6.3%,-3.7%
Cc1cccc(CSc2cn(CC(=O)N3CCCCCC3)c3ccccc23)c1,0.8%,-0.7%
CCOc1ccc(NC(=O)CCCc2nc(-c3cccc(OC)c3)no2)cc1,1.0%,2.0%
CC1CCCCN1Cc1c(O)ccc2c(=O)c(-c3ccccc3Cl)c(C(F)(F)F)oc12 (stereo not given),-0.5%,0.5%
COC(=O)C1CCN(c2csc3ccc(Cl)cc3c2=O)CC1,0.1%,-30%
O=C(NC1CC(=O)N(c2ccccc2)C1)c1ccc(S(=O)(=O)N2CCCC2)cc1 (stereo not given),-0.3%,1.7%
CC(C)Sc1ncc(Cl)c(C(=O)Nc2c(C(=O)Nc3ccccc3)oc3ccccc23)n1,3.4%,0.1%
CCOC(=O)c1sc(N2C(=O)c3oc4ccccc4c(=O)c3C2c2ccc(C(C)(C)C)cc2)nc1C (stereo not given),3.9%,1.4%
COc1cccc(NS(=O)(=O)c2ccc3[nH]cc(C(=O)NC(C)c4ccccc4)c(=O)c3c2)c1 (stereo not given),1.6%,-14%
O=C(c1ccc2c(c1)N(Cc1ccccc1F)C(=O)c1ccccc1S2(=O)=O)N1CCOCC1,1.4%,-2.9%
CC(C)c1cnc2c(c1SCc1ccc([N+](=O)[O-])cc1)c(=O)n(C)c(=O)n2C,-0.4%,-3.1%
COc1ccc(OC)c(NC(=O)c2cc3cc4ccc(C)cc4nc3s2)c1,2.6%,-17%
CCC(=O)Nc1cc(C)c(O)c(-c2nc3ncccc3o2)c1,1.3%,-3.7%

# Entries shown so far with bromine (3):
SMILES,PINK1 expr mod,ClpP mod
Cc1ccc2c(c1Br)C(O)(CC(=O)c1ccc(F)cc1)C(=O)N2 (stereo not given),2.9%,-3.6%
COc1ccc2c(c1)CC(C(=O)Nc1ccc(Br)c(C)c1)CO2 (stereo not given),0.5%,-9.5%
Cc1cccc(N2CCN(S(=O)(=O)c3cc(Br)cc4c3N(C(=O)C3CC3)CC4)CC2C)c1 (stereo not given),0.6%,1.7%

# The list goes on:
SMILES,PINK1 expr mod,ClpP mod
COC(=O)c1c(SC)nc2ccccc2c1OCc1cccc(C)c1,1.7%,-4.5%
CCCN1CNc2c(c(=O)[nH]c(=O)n2CCc2ccc(OC)c(OC)c2)C1,-0.5%,-3.1%
O=C(CSc1nnc(-c2ccc([N+](=O)[O-])cc2)o1)Nc1ccccc1,0.3%,-0.3%
COc1ccc(OC)c(-c2cc(C(=O)Nc3ccc(C)c(C)c3)no2)c1,6.3%,4.4%
COc1ccc(OCC(=O)Nc2c(C(=O)N3CCN(c4ccccc4)CC3)oc3ccccc23)cc1,-1.5%,-4.8%

# Three of the entries above in order of the PINK1 expr mod value, smallest number first:
Molecule | PINK1 expr mod
O=C(CSc1nnc(-c2ccc([N+](=O)[O-])cc2)o1)Nc1ccccc1 | 0.3%
COC(=O)c1c(SC)nc2ccccc2c1OCc1cccc(C)c1 | 1.7%
COc1ccc(OC)c(-c2cc(C(=O)Nc3ccc(C)c(C)c3)no2)c1 | 6.3%

# Filtered by structure, those above containing a cyano group (2)
SMILES,PINK1 expr mod,ClpP mod
CCN(CC)C(=O)c1sc2c(c1C)c(=O)n(-c1ccc(Cl)c(Cl)c1)c(=O)n2Cc1ccccc1C#N,3.5%,-2.5%
CCOc1cc(C#N)c(NC(=O)c2ccc(OC)c(S(=O)(=O)N3CCCC3)c2)cc1OCC,1.0%,-1.9%

# Screens (PubChem BioAssay)

# Not all compounds are listed. The share of hits here may be higher or lower than overall.
